Screening data (PubChem BioAssay)
GLA inh pH 4.5: inhibitors of human alpha-galactosidase A at pH 4.5; AID 1467; purified enzyme, 4-MU-alpha-Gal fluorescence, pH 4.5; activity change, negative = inhibition, % at 105 µM; 230,000 tested, under 10 active; P06280; inconclusive = small, poorly fitted or top-dose-only inhibition, or a rising curve; inactive = flat fitted curve, though single readings scatter; no compound was filed as active;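 note: 0% = full activity with enzyme and -100% = basal without enzyme; dose as in the result columns while the protocol names 77 µM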
Rango complex inh: inhibitors of Rango-importin beta complex formation; Rango CFP/YFP FRET sensor + importin beta, 45 min; AID 540263; 340,000 tested, 0.031% active; Potency, µM (top dose mostly 92.2 µM), for inactives: top-dose inhibition of complex formation; Q14974; active = rising FRET ratio curve, often small or poorly fitted; inconclusive = mostly compound fluorescence or quenching in the first reads; inactive = flat curves in all reads;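 note: potency is the fitted concentration of half-maximal effect; 0% = DMSO wells and 100% = buffer wells lacking importin beta; nearly all actives have a fitted effect of over 15% in size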
Target sequence (Q14974 whole entry, looked up): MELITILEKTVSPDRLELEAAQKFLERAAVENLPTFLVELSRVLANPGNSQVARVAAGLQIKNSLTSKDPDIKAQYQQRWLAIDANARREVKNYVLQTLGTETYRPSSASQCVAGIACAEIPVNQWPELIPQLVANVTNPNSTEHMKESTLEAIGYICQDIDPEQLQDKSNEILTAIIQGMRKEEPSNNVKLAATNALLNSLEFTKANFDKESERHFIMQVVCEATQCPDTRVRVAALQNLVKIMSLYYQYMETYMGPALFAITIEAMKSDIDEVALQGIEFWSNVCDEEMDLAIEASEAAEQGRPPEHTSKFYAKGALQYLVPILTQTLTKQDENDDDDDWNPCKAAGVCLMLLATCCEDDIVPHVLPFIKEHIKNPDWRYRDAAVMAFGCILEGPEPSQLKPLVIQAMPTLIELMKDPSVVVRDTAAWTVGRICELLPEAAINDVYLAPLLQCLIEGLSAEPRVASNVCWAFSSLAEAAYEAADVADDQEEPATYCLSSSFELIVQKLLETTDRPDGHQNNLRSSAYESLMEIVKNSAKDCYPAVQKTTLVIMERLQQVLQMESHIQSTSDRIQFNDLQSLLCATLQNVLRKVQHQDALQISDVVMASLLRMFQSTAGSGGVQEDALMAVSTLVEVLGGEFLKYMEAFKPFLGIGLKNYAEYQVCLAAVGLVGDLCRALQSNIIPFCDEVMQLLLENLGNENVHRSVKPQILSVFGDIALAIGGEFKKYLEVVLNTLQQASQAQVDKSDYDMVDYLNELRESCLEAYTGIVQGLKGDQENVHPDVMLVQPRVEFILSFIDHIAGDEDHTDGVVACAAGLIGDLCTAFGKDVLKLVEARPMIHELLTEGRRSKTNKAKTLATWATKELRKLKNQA
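Inhibition scored from the CFP 486 nm/YFP 530 nm FRET ratio 45 min after adding 0.125 microM importin beta to 50 nM Rango biosensor preincubated 5 min with compound (room temperature, PBS with DTT, Tween-20, BSA). No-importin wells as positive control.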
miR-21 reporter: raises the signal of a miR-21 reporter. HeLa miR-21 FLuc reporter, luciferase, 48 h. Potency, µM (series often up to 38.3 µM), inactives show at the highest dose reporter change, positive = more light. 340,000 tested, under 10 active; active = well fitted rising curve with a large enough effect; inconclusive = small, poorly fitted or top-dose-only effect; inactive = no such curve, though single readings can be large or run the other way;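 note: % of control where 0% means no effect; miR-21 action dims this reporter so a rising signal means less miR-21 action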
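HeLa cells stably expressing CMV-driven firefly luciferase with a downstream miR-21 binding sequence, endogenously expressing miR-21, were treated with titrations (up to about 40uM final) for 48 hours at 37 degree Celsius. Luciferase luminescence was read after lysis.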
Rango release inh: inhibitors of RanGTP-induced Rango-importin beta complex dissociation | Potency, µM (highest dose often 46.1 µM), for the others: top-dose activity change, negative = inhibition | 340,000 tested, 0.071% active | Biochemical FRET Rango-importin beta, RanGTP-induced dissociation | AID 540253; active means falling FRET ratio curve, often poorly fitted, with flat reads before Ran was added; inconclusive means other falling curves, or compound fluorescence or quenching; inactive means flat or rising ratio curve;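 note: potency is the fitted concentration of half-maximal effect; % of control where 0% means no effect; nearly all actives have a fitted effect of over 45% in size; -100% = wells without RanGTP and RCC1; the record marks most hits as doubtful in a second field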
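Compounds preincubate 5 min with complex of recombinant Rango and importin beta in PBS with 1 mM DTT. Ran (0.6 uM) loaded with 2 mM GTP plus 0.2 uM RCC1 starts dissociation; FRET is recorded 45 min later.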
* hit, by the source's call; ? = inconclusive; · = no result given; & = joins results of further samples. These rows are one share of the data (hit frequency here may not be typical).

SMILES	GLA inh pH 4.5	Rango complex inh	miR-21 reporter	Rango release inh
COc1ccc(F)cc1S(=O)(=O)NCc1cc(=O)n(C)c(=O)n1C	·	0.6%	-0.6%	0.2%
COc1cc2cc(C(=O)Nc3ccc4c(c3)OCCO4)[nH]c2cc1OC	·	5.3%	0.6%	8.9%
Cc1cc(NC(=O)CN2C(=O)NC3(CCCCCC3)C2=O)ccc1Br	·	-1.3%	·	-4.5%
CC(C)[C@H](NC(=O)c1ccc(Cl)cc1Cl)C(=O)NNC(=O)c1ccco1	·	6.0%	·	-14.0%
Cc1cccc(/C=C2\CCC(=C3SCCCS3)C2=O)c1	-7.7	2.9%	-30.3%	-5.9%
CCCCn1c(N)c(N(CCC(C)C)C(=O)c2cccc(S(=O)(=O)N3CCN(C)CC3)c2)c(=O)[nH]c1=O	·	-1.8%	·	-2.6%
COc1ccc(N(CC(=O)Nc2ccc(OC)cc2OC)S(=O)(=O)c2ccccc2)cc1	-3.1	0.3%	14.7%	20.5%
CC(=O)OCC1(C)CN(c2ccccc2)N(C(=O)c2ccc(C(C)(C)C)cc2)C1=O (stereo unspecified)	12.4	-0.3%	0.5%	1.1%
Oc1cccc(NC(=S)N=Nc2c(O)[nH]c3ccccc23)c1	-16.0	-1.3%	-41.4%	1.8%
CC(C)=CCC/C(C)=C/CNC(=O)C[C@H]1C[C@H](C(=O)N2CCCCC2)[C@@]2(C)c3[nH]c4cc(CCC(=O)N(C)C)ccc4c3CCN2C1=O	·	-4.5%	·	-9.6%
CC(=O)Nc1ccc(S(=O)(=O)NCCc2ccccc2)cc1	-5.7	3.8%	-1.9%	5.7%
O=C(Nc1ccc(Cl)cn1)C1CCCN1S(=O)(=O)c1ccc(Cl)cc1 (stereo unspecified)	6.6	-2.0%	-0.8%	-17.0%
O=[N+]([O-])c1ccc2c(c1)C(=Nc1ccccc1)c1ccccc1-2	·	2.0%	·	8.2%
CC/C(C)=N/Oc1nc(C)cc(C)n1	-3.1	1.5%	1.9%	-0.5%
CCCCNC(=S)NNC(=O)CCn1nc(C)c(Br)c1C	5.8	0.5%	-9.6%	34.2%
O=C1NC(=O)c2c(NC(=O)C3CCCO3)cccc21 (stereo unspecified)	11.0	-1.4%	-6.2%	2.2%
Cc1cc(C)c2nc(-c3ccccn3)cc(C(=O)Nc3cc(C)on3)c2c1	-12.9	-2.7%	-2.6%	9.3%
O=C(COC(=O)c1ccc(Br)o1)Nc1ccc2[nH]c(=O)[nH]c2c1	·	-0.4%	·	-9.4%
CCN(CC)S(=O)(=O)c1ccc(O)c(NC(=O)c2ccc(N3CCOCC3)c([N+](=O)[O-])c2)c1	-4.4	1.0%	-20.3%	0.8%
N/C(=N\OC(=O)Cc1ccccc1[N+](=O)[O-])c1ccccn1	1.6	1.9%	-42.1%	19.5%
CCOC(=O)/C(C#N)=C/c1cc2cc(C)c(C)cc2nc1Cl	3.7	-0.5%	-16.7%	-1.4%
COc1ccccc1OCC(=O)Nc1ccccn1	0.8	-0.3%	-9.0%	-15.9%
CCC(C)CCCCCCCCCCC(=O)O (stereo unspecified)	·	?	·	2.0%
Cc1ccc(OCC(O)CNCc2ccccc2)cc1C (stereo unspecified)	-5.6	3.5%	-18.5%	16.1%
CN(C)c1nc(NCc2ccccc2)nc(SCC(=O)Nc2ccccc2)n1	-1.4	2.0%	-8.3%	4.6%
COc1ccc(CNC(=O)c2cncc(Br)c2)cc1	·	-4.2%	-11.7%	-2.3%
CC(NC(=O)NC1CCCCC1)c1ccc2c(c1)OCO2 (stereo unspecified)	8.6	1.0%	-12.4%	0.0%
O=S(O)OC1CS(=O)(=O)CC1c1ccccc1 (stereo unspecified)	·	-5.9%	0.0%	6.0%
Cc1ccc(S(=O)(=O)NC(=O)Nc2ccc(F)c(F)c2)cc1	·	1.1%	2.1%	1.9%
CCC(=O)c1ccc(OCC(=O)Nc2ccc(N3CCCCC3)cc2)cc1	·	?	·	·
CCOC(=O)CC1NC(=O)c2ccccc21 (stereo unspecified)	12.2	-0.2%	-2.2%	6.2%
CC(=O)N1CN(CCCn2ccnc2)Cc2c1sc1c2CCCC1	0.9	-3.0%	-3.1%	6.4%
O=C(NCc1cccs1)c1cc(C2CC2)on1	4.7	-0.6%	-42.9%	-0.1%
CCOC(=O)c1c(NC(=O)C2C3C=CC(CC3)C2C(=O)O)sc(C)c1C (stereo unspecified)	7.5	?	-0.5%	-4.6%
CC(C)C12NC(=O)NC(=O)N1CCS2 (stereo unspecified)	·	-3.2%	·	5.4%
CC(C)CNC(=S)NC1CCCC1	-1.3	5.9%	1.5%	7.3%
Cc1ccc(S(=O)(=O)CCC(=O)c2ccc(F)cc2)cc1	·	-0.4%	2.3%	2.9%
O=C(CSc1nc(-c2ccccc2)c(-c2ccccc2)[nH]1)Nc1nccs1	-5.3	-3.0%	11.9%	19.7%
Cn1c(CC(=O)Nc2ccccc2)c(Sc2ccccc2)c2ccccc21	-8.7	2.0%	-2.6%	15.0%
CC(C)C[C@H](NC(=O)C1(c2ccccc2)CCN(C(=O)OC(C)(C)C)CC1)C(=O)N1CCC[C@H]1C(=O)O	·	1.5%	-1.2%	11.7%

Entries listed so far that contain a furan ring, fused or not:
SMILES	GLA inh pH 4.5	Rango complex inh	miR-21 reporter	Rango release inh
CC(C)[C@H](NC(=O)c1ccc(Cl)cc1Cl)C(=O)NNC(=O)c1ccco1	·	6.0%	·	-14.0%
O=C(COC(=O)c1ccc(Br)o1)Nc1ccc2[nH]c(=O)[nH]c2c1	·	-0.4%	·	-9.4%

The results go on.
SMILES	GLA inh pH 4.5	Rango complex inh	miR-21 reporter	Rango release inh
CC1CCN(S(=O)(=O)c2ccc3c(c2)N(CC(=O)NCCCN2CCCCC2)C(=O)CS3)CC1	·	1.6%	-0.4%&-0.9%	-1.0%
CCOc1ccc(C(=O)C2CCN(CC(=O)Nc3nccs3)CC2)cc1	·	-5.9%	21.9%	-10.6%
Cc1cc(N2CCN(C(=O)OC(C)(C)C)CC2)n2ncnc2n1	4.9	2.9%	1.9%	14.5%
COc1ccc(NC(=O)C(c2ccc(C)cc2)N(C)C(=O)c2ccc(=O)[nH]c2)cc1 (stereo unspecified)	-19.4	0.6%	0.8%	-6.2%
O=C(CSc1ccc2c(c1)OCCO2)Nc1ccc(Br)cc1	5.5	2.0%	4.6%	-16.7%
Cc1ccc2nc(N(CCN(C)C)C(=O)c3ccc4ccccc4c3)sc2c1	·	0.0%	-21.4%	21.1%
COc1ccc(CCN2CC(C(=O)NCC3(O)CCCCC3)CCC2=O)cc1 (stereo unspecified)	·	-4.0%	1.1%	5.9%
O=S(=O)(Nc1nc2ccccc2nc1NCC1CCCO1)c1cc(Cl)ccc1Cl (stereo unspecified)	-2.2	8.4%	6.8%	-2.4%
O=C(Nc1ccc(Cl)cn1)C1CCCN1S(=O)(=O)c1ccccc1 (stereo unspecified)	-5.2	-1.9%	-1.2%	-19.9%
CCS(=O)(=O)c1ncc(CO)n1CCc1ccccc1	·	-1.5%	0.9%	15.7%
O=C(COc1ccc(S(=O)(=O)N2CCOCC2)cc1Cl)NC1CCCCC1	·	-0.2%	-3.3%	5.5%
CCN(CC)S(=O)(=O)c1cc(NC(=O)COc2ccc(C#N)cc2OC)ccc1C	-0.3	-1.8%	-2.0%	-3.4%
CCSc1nc(-c2ccc(OC)cc2)cc(-c2ccccc2)c1C#N	-0.4	-2.0%	-4.4%	1.5%
CCCCn1c(=O)[nH]c(=O)c2c1nc(-c1ccc(C#N)cc1)n2C1CCCC1	12.8	4.0%	-3.4%	-4.6%
O=C1[C@H]2[C@H]3[C@H](O)[C@H](O)C/C(=N\OC[C@@H](O)COCc4ccco4)[C@@H]3CC[C@H]2C(=O)N1c1ccc(F)cc1F	-6.9	·	-0.7%	·
Cc1ccc(C(=O)N/C(=C\c2ccc(F)cc2)C(=O)NCc2ccncc2)cc1	3.4	3.0%	-5.6%	5.7%
O=C(c1cccc(S(=O)(=O)N2CCCC2)c1)N(Cc1ccco1)C1CCS(=O)(=O)C1 (stereo unspecified)	-8.3	-3.9%	-2.8%	-13.9%
CC(On1nnc2ccc(S(=O)(=O)N3CCOCC3)cc21)C(=O)Nc1ccccc1F (stereo unspecified)	·	0.1%	·	-14.7%
O=C(Cc1ccsc1)Nc1ccc(S(=O)(=O)C(F)F)cc1	1.6	0.1%	-18.8%	-17.2%
CC(=O)c1ccc(NC(=S)NC(C)CCc2ccccc2)cc1 (stereo unspecified)	-5.5	-6.1%	0.2%	3.7%
Cn1cnc2c(SCc3ccccc3)ncnc21	·	0.0%	·	9.9%
Cc1ccccc1NC(=O)/C(C#N)=C\c1cc(C)n(-c2ccc(C(=O)O)cc2)c1C	-0.6	0.0%	-11.8%	-16.0%
Oc1ccc(-c2csc(Nc3ccccn3)n2)c(O)c1	·	-3.7%	-42.0%	-1.6%
CC1(C(=O)N2CC3(CC(c4cccc(NC(=O)CC(c5ccccc5)c5ccccc5)c4)=NO3)C[C@@H]2C(N)=O)CC1 (stereo partly specified)	0.1	-2.4%	18.4%	2.6%
CCC(COC(=O)Nc1cccc(C)c1)NC(=O)OCC(C)C (stereo unspecified)	-6.7	0.7%	-16.4%	-7.2%
Cc1ccc(C(=O)Nc2cnc3sc(C)nn3c2=O)cc1	1.9	-1.3%	-40.4%	-0.9%
CCOC(=O)C(C)Oc1ccc(C2NC(=O)NC(C)=C2C(=O)Nc2ccccc2C)cc1 (stereo unspecified)	-15.5	-2.5%	-2.5%	0.3%
CCOC(=O)COc1cc(-n2c(=S)[nH]c3cc(OC)c(OC)cc3c2=O)c(Cl)cc1Cl	-3.4	-1.0%	-3.8%	5.7%
CCOC(=O)CSc1cc(CSc2ccccc2)nc(-c2ccccc2)n1	3.9	1.6%	-1.9%	10.3%
COc1cc2c(cc1OC)CN(CC(=O)Nc1ccccc1SC)CC2	2.2	-0.4%	14.2%	-6.8%
CCCCNS(=O)(=O)c1ccc(NC(=O)C(Sc2ccccc2)c2ccccc2)cc1 (stereo unspecified)	-7.4	2.9%	28.8%	18.0%
C/C(=N\NC(=O)c1ccc(COc2ccccc2)cc1)c1ccncc1	3.0	0.5%	-12.5%	18.4%
COc1ccc(CCN2C(=O)NC(NS(=O)(=O)c3ccccc3)(C(F)(F)F)C2=O)cc1OC (stereo unspecified)	·	1.3%	-6.4%	12.3%
CCOC(=O)N/N=C\c1ccc(OC/C=C/c2ccccc2)cc1	·	-3.2%	-11.7%	8.0%
CC(C)Nc1ccc(C(CC(N)=O)NC(=O)Cc2ccc(Br)cc2)cc1[N+](=O)[O-] (stereo unspecified)	11.6	2.9%	-1.9%	1.7%
O=S(=O)(Nc1ccc(S(=O)(=O)N2CCCC2)cc1)c1ccc(F)cc1	·	0.4%	-0.1%	2.8%
COc1ccccc1CNC(=O)COc1ccc2c(c1)CCC2	-8.7	0.7%	-14.0%	12.2%
O=S1(=O)CCOC[C@H](Cc2ccccc2)N1Cc1ccc(F)cc1	·	-6.6%	·	-6.3%
CC(CCc1ccccc1)NC(=O)COC(=O)C12CC3CC(CC(Br)(C3)C1)C2 (stereo unspecified)	-5.0	-2.3%	-0.3%	-3.2%
COc1cccc(/C=C/C(=O)NCC2CCCCC2)c1	·	2.7%	·	-16.4%
Cc1ccc(S(=O)(=O)c2nc(NCc3ccc4c(c3)OCO4)sc2Cl)cc1	-3.2	-1.9%	-10.8%	1.1%
Cc1cc([N+](=O)[O-])ccc1NCc1cccc([N+](=O)[O-])c1	-1.5	-7.2%	8.2%	0.1%
Clc1ccc(-c2nc(-c3ccncc3)no2)c(Cl)c1	·	2.3%	·	16.3%
Oc1ccc(CN2CCN(c3ccccc3)CC2)c2cccnc12	-7.2	-0.9%	29.2%	0.8%
CC1C/C(=N\Nc2ccc(S(N)(=O)=O)cc2[N+](=O)[O-])CC(C)(C)C1 (stereo unspecified)	22.1	?	-3.9%	-5.7%
N#Cc1c(-c2cccs2)nc(SCC(=O)c2cccs2)[nH]c1=O	-4.8	?	-5.3%	-16.4%
Cc1cc(C)c(C(N)=O)c(NC(=O)Nc2ccccc2Cl)n1	5.5	1.0%	-8.8%	-15.5%
COc1ccc(OC)c(C(=O)c2ccc(C(=O)Nc3ccc4ccccc4c3)cc2)c1	5.4	2.6%	-7.0%	19.0%
